UUG fidelity: modulators of start codon recognition fidelity in yeast; activity score, % at 18.7 µM; S. cerevisiae UUG-firefly luciferase reporter, luminescence/redox ratio; 350,000 compounds, 0.13% hits; AID 602363;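 active = replicate mean at a twofold rise or more, about +100% in these data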;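 note: firefly luciferase made from a UUG start codon reports start codon fidelity; reporter light over untreated wells divided by growth signal over untreated wells; some hits fall short of that in this replicate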
Env fusion inh: inhibitors of HIV Env-mediated cell fusion | HeLa-JRFL Env/CEM21 cell fusion, luciferase | inhibition, % at 12.3 µM | 360,000 compounds, 1.1% hits | AID 651610;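 active = mean replicate inhibition score of at least 50 and every replicate individually at or above 50; inconclusive = only one of the two criteria met; inactive = mean below 50 and not all replicates reaching 50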;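 note: 0% = plate neutral controls and 100% = maraviroc near 300 nM; one replicate is shown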
The depositor's hits bear a star; ? = inconclusive; [ ] = dose if it differs, or a comment. An excerpt. The share of hits here may be higher or lower than overall.

SMILES	UUG fidelity	Env fusion inh
CCNC(=O)C[C@H]1CC[C@H]2[C@H](COc3ccc(NC(=O)Nc4ccccc4F)cc3C(=O)N2C)O1	-2.0	0.5[16.7 µM]
C[C@@H]1CN([C@@H](C)CO)C(=O)c2cc(NC(=O)Nc3cccc4ccccc34)ccc2O[C@@H]1CN(C)S(=O)(=O)c1ccccc1	-1.6	5.4[16.7 µM]
C[C@@H]1CCCCO[C@H](CN(C)C(=O)Nc2ccc(F)cc2)[C@H](C)CN([C@@H](C)CO)C(=O)c2cc(NC(=O)Nc3ccc4c(c3)OCO4)ccc2O1	3.3	-20.0[16.7 µM]
C[C@H]1CCCCO[C@H](CN(C)Cc2ccc(C(F)(F)F)cc2)[C@@H](C)CN([C@@H](C)CO)C(=O)c2cc(NC(=O)c3ccncc3)ccc2O1	35.2	-19.2[16.7 µM]
CNC[C@@H]1Oc2ncc(C#CCN(C)C)cc2C(=O)N([C@H](C)CO)C[C@@H]1C	9.5	-11.2[16.7 µM]
C[C@@H]1CN([C@H](C)CO)C(=O)c2cc(-c3cncnc3)cnc2O[C@@H]1CN(C)Cc1ccc(F)cc1	0.8	-7.6[16.7 µM]
CN1C(=O)c2cc(NC(=O)Cc3ccccc3)ccc2OC[C@H]2O[C@H](CC(=O)O)CC[C@@H]21	-2.2	7.6[16.7 µM]
C[C@@H]1CCCCO[C@H](CN(C)S(=O)(=O)c2ccccc2)[C@@H](C)CN([C@@H](C)CO)C(=O)c2cc(NS(=O)(=O)c3cn(C)cn3)ccc2O1	2.7	-4.5[16.7 µM]
CCC(=O)N(C)C[C@@H]1Oc2cc(-c3ccccc3OC)ccc2S(=O)(=O)N([C@@H](C)CO)C[C@H]1C	1.7	-16.7[16.7 µM]
COc1ccc(NC(=O)Nc2cccc3c2O[C@@H](CN(C)C(=O)Nc2ccccc2)[C@H](C)CN([C@H](C)CO)C3=O)cc1	20.2	-7.7[16.7 µM]
Cc1ccc(S(=O)(=O)N[C@H]2CC[C@@H](CCNC(=O)C3CCC3)O[C@@H]2CO)cc1	-2.6	14.9[16.7 µM]
COc1ccc(NC(=O)N(C)C[C@@H]2OCCCC[C@@H](C)Oc3ccc(NS(C)(=O)=O)cc3C(=O)N([C@@H](C)CO)C[C@H]2C)cc1	14.0	16.1[16.7 µM]
C[C@H]1CN([C@@H](C)CO)C(=O)c2cc(NS(=O)(=O)c3ccccc3)ccc2O[C@@H]1CN(C)S(=O)(=O)c1ccccc1	17.6	7.0[16.7 µM]
O=C(C[C@@H]1C[C@H]2c3cc(NC(=O)NC4CCCC4)ccc3O[C@H]2[C@H](CO)O1)NC1CCCCC1	11.2	5.5[16.7 µM]
O=C(Nc1ccccc1F)N[C@H]1CC[C@@H](CCNS(=O)(=O)c2ccc(Cl)cc2)O[C@H]1CO	-2.2	-5.5[16.7 µM]
CC(C)NC(=O)N(C)C[C@@H]1OCCCC[C@H](C)Oc2ccc(NS(=O)(=O)c3ccc(Cl)cc3)cc2C(=O)N([C@@H](C)CO)C[C@@H]1C	-16.8	-88.7[16.7 µM]
C[C@@H]1CN([C@@H](C)CO)C(=O)c2cc(-c3ccc(C(=O)N(C)C)cc3)cnc2O[C@H]1CN(C)C(=O)c1cccnc1	-3.5	-88.5[16.7 µM]
O=C(C[C@@H]1C=C[C@@H](NC(=O)C2CCOCC2)[C@@H](CO)O1)NCC1CC1	0.7	-4.5[16.7 µM]
C/C=C/c1ccc2c(c1)O[C@H](CN(C)C(=O)NCCC)[C@@H](C)CN([C@@H](C)CO)S2(=O)=O	-5.7	2.4[16.7 µM]
CCC(=O)N1C[C@@H](O)COC[C@H]2O[C@@H](CC(=O)NCC3CCCCC3)CC[C@@H]21	111.7*	-18.3[16.7 µM]
C[C@H]1CN([C@@H](C)CO)C(=O)c2cc(NS(=O)(=O)c3ccc(F)cc3)ccc2O[C@H]1CN(C)S(=O)(=O)c1cccs1	14.2	-4.4[16.7 µM]
CC(C)C#Cc1ccc2c(c1)O[C@@H](CN(C)Cc1ccncc1)[C@H](C)CN([C@@H](C)CO)S2(=O)=O	10.1	36.2[16.7 µM]
O=C(NCC[C@@H]1CC[C@H](NS(=O)(=O)Cc2ccccc2)[C@H](CO)O1)C1CCOCC1	-2.4	-3.7[16.7 µM]
C[C@H](CO)N1C[C@H](C)[C@@H](CN(C)S(=O)(=O)c2ccccc2)Oc2cc(C#Cc3ccncc3)ccc2S1(=O)=O	-10.6	-2.1[16.7 µM]
COc1ccc(S(=O)(=O)N(C)C[C@H]2OCCCC[C@H](C)Oc3ccc(NC(=O)C4CCCCC4)cc3C(=O)N([C@@H](C)CO)C[C@H]2C)cc1	-1.2	-11.3[16.7 µM]

Next section, overlapping the part above by 6 compounds.
SMILES	UUG fidelity	Env fusion inh
CCC(=O)N1C[C@@H](O)COC[C@H]2O[C@@H](CC(=O)NCC3CCCCC3)CC[C@@H]21	111.7*	-18.3[16.7 µM]
C[C@H]1CN([C@@H](C)CO)C(=O)c2cc(NS(=O)(=O)c3ccc(F)cc3)ccc2O[C@H]1CN(C)S(=O)(=O)c1cccs1	14.2	-4.4[16.7 µM]
CC(C)C#Cc1ccc2c(c1)O[C@@H](CN(C)Cc1ccncc1)[C@H](C)CN([C@@H](C)CO)S2(=O)=O	10.1	36.2[16.7 µM]
O=C(NCC[C@@H]1CC[C@H](NS(=O)(=O)Cc2ccccc2)[C@H](CO)O1)C1CCOCC1	-2.4	-3.7[16.7 µM]
C[C@H](CO)N1C[C@H](C)[C@@H](CN(C)S(=O)(=O)c2ccccc2)Oc2cc(C#Cc3ccncc3)ccc2S1(=O)=O	-10.6	-2.1[16.7 µM]
COc1ccc(S(=O)(=O)N(C)C[C@H]2OCCCC[C@H](C)Oc3ccc(NC(=O)C4CCCCC4)cc3C(=O)N([C@@H](C)CO)C[C@H]2C)cc1	-1.2	-11.3[16.7 µM]
COc1ccc(NC(=O)Nc2ccc3c(c2)C(=O)N([C@@H](C)CO)C[C@H](C)[C@H](CN(C)S(=O)(=O)c2cccs2)O3)cc1	1.0	20.4[16.7 µM]
C[C@@H]1CN([C@H](C)CO)S(=O)(=O)c2ccc(C#CCC3CCCC3)cc2O[C@@H]1CN(C)C(=O)c1cnccn1	2.4	22.2[16.7 µM]
COc1cccc(S(=O)(=O)Nc2ccc3c(c2)[C@H]2C[C@H](CC(=O)NCc4cccc(F)c4)O[C@@H](CO)[C@H]2O3)c1	25.8	28.3[16.7 µM]
CO[C@@H]1CN(C)C(=O)c2cc(NS(C)(=O)=O)ccc2OC[C@@H](C)N(C(=O)C2CCC2)C[C@H]1C	-8.4	7.6[16.7 µM]
C[C@H](CO)N1C[C@H](C)[C@@H](CN(C)Cc2ccc(Oc3ccccc3)cc2)Oc2ccc(NS(=O)(=O)c3ccccc3)cc2CC1=O	9.2	-5.5[16.7 µM]
C[C@H]1CN([C@@H](C)CO)C(=O)c2cc(C#CC3CCCC3)cnc2O[C@@H]1CN(C)S(C)(=O)=O	1.3	4.9[16.7 µM]
C[C@@H]1CN([C@@H](C)CO)C(=O)c2cc(C#CCN(C)C)cnc2O[C@@H]1CN(C)C(=O)Nc1cc(F)ccc1F	26.9	-17.1[16.7 µM]
COc1ccc(CNC(=O)C[C@@H]2C[C@H]3c4cc(NC(=O)CN(C)C)ccc4O[C@H]3[C@H](CO)O2)cc1	10.1	-22.7[16.7 µM]
C[C@H]1CN([C@@H](C)CO)S(=O)(=O)c2ccc(-c3cccc(C(=O)N(C)C)c3)cc2O[C@H]1CN(C)C(=O)Nc1ccccc1	3.5	7.2[16.7 µM]
CC(C)NC(=O)N[C@H]1CC[C@@H](CCn2cc(-c3ccccc3)nn2)O[C@H]1CO	9.1	-1.0[16.7 µM]
CNC[C@H]1Oc2ccc(NC(=O)Nc3ccc4c(c3)OCO4)cc2CC(=O)N([C@@H](C)CO)C[C@H]1C	3.2	30.1[16.7 µM]
CN(C)C(=O)C[C@H]1CC[C@H](NC(=O)C2CC2)[C@H](CO)O1	-25.4	-5.5[16.7 µM]
COc1cccc(S(=O)(=O)N[C@@H]2C=C[C@@H](CC(=O)NC3Cc4ccccc4C3)O[C@@H]2CO)c1	-0.5	6.8[16.7 µM]
CCS(=O)(=O)Nc1ccc2c(c1)C(=O)N(C)C[C@H](OC)[C@@H](C)CN(C)[C@H](C)CO2	-3.4	12.0[16.7 µM]
Cc1ccc(S(=O)(=O)N(C)C[C@H]2OCCCC[C@@H](C)Oc3ccc(NS(C)(=O)=O)cc3C(=O)N([C@H](C)CO)C[C@H]2C)cc1	11.9	-19.7[16.7 µM]
CCCNC(=O)Nc1ccc2c(c1)C(=O)N(C)C[C@H](OC)[C@H](C)CN(C(C)=O)[C@@H](C)CO2	-20.5	-5.7[16.7 µM]
C/C=C/c1cnc2c(c1)C(=O)N([C@H](C)CO)C[C@H](C)[C@H](CN(C)S(=O)(=O)c1ccc(F)cc1)O2	129.6*	-4.6[16.7 µM]
CNC[C@@H]1Oc2ccc(NC(=O)Nc3ccc(OC)cc3)cc2CC(=O)N([C@@H](C)CO)C[C@H]1C	3.7	-2.5[16.7 µM]
C[C@H]1CCCCO[C@H](CN(C)C)[C@@H](C)CN([C@@H](C)CO)C(=O)c2cc(NC(=O)c3ccccc3)ccc2O1	12.5	15.2[16.7 µM]
C[C@H](CO)N1C[C@H](C)[C@H](CN(C)C)Oc2cc(C#CC3(O)CCCC3)ccc2S1(=O)=O	20.4	13.3[16.7 µM]
C[C@@H]1CCCCO[C@@H](CN(C)S(=O)(=O)c2ccc(F)cc2)[C@H](C)CN([C@H](C)CO)C(=O)c2cc(NS(=O)(=O)c3cccs3)ccc2O1	-10.9	-8.9[16.7 µM]
C[C@H](CO)N1C[C@H](C)[C@@H](CN(C)C(=O)NC2CCCCC2)OCCCC[C@H](C)Oc2ccc(NS(=O)(=O)c3cccs3)cc2C1=O	15.4	-115.0[16.7 µM]
C[C@@H]1CCCCO[C@H](CN(C)C(=O)c2ccccc2)[C@H](C)CN([C@@H](C)CO)C(=O)c2cc(NS(=O)(=O)c3cn(C)cn3)ccc2O1	4.1	34.8[16.7 µM]
C[C@@H]1CN([C@H](C)CO)C(=O)c2cc(NC(=O)CCCN(C)C)ccc2O[C@@H](C)CCCCO[C@H]1CN(C)Cc1ccccc1	15.4	-8.1[16.7 µM]
CC(=O)N(C)C[C@@H]1Oc2ncc(C#Cc3ccc(F)cc3)cc2C(=O)N([C@@H](C)CO)C[C@@H]1C	6.0	-6.7[16.7 µM]
SMILES	UUG fidelity	Env fusion inh
COc1ccccc1CNC(=O)C[C@H]1C[C@H]2c3cc(NC(=O)CC4CC4)ccc3O[C@H]2[C@@H](CO)O1	-0.2	14.8[16.7 µM]
C[C@H](CO)N1C[C@H](C)[C@H](CN(C)CC2CC2)Oc2c(NC(=O)NC3CCCCC3)cccc2C1=O	15.0	-11.0[16.7 µM]
Cc1noc(C)c1NC(=O)N(C)C[C@@H]1Oc2ccc(NC(=O)CCN3CCOCC3)cc2C(=O)N([C@H](C)CO)C[C@H]1C	-10.9	-9.2[16.7 µM]
C[C@@H]1CN([C@H](C)CO)C(=O)c2cc(C#CC3CC3)cnc2O[C@@H]1CN(C)C(=O)CC1CC1	11.0	-6.3[16.7 µM]
COCC(=O)N(C)C[C@H]1Oc2ncc(C#Cc3ccccc3)cc2C(=O)N([C@@H](C)CO)C[C@@H]1C	-0.8	0.0[16.7 µM]
Cc1noc(C)c1NC(=O)N(C)C[C@H]1Oc2ccc(NC(=O)Cc3ccccc3)cc2CC(=O)N([C@H](C)CO)C[C@H]1C	4.1	-8.6[16.7 µM]
CN1C(=O)c2cc(NC(=O)Cc3ccccc3)ccc2OC[C@@H]2O[C@H](CC(=O)O)CC[C@@H]21	-10.3	3.1[16.7 µM]
Cc1ccc(-c2ccc3c(c2)O[C@@H](CN(C)Cc2ccccn2)[C@H](C)CN([C@@H](C)CO)S3(=O)=O)cc1	-7.4	2.6[16.7 µM]
C[C@@H]1CCCCO[C@@H](CN(C)S(C)(=O)=O)[C@H](C)CN([C@@H](C)CO)C(=O)c2cc(NC(=O)CCCN(C)C)ccc2O1	27.3	23.5[16.7 µM]
C[C@@H](NC(=O)C[C@H]1C=C[C@@H](NC(=O)CN2CCOCC2)[C@H](CO)O1)c1ccccc1	-2.8	1.4[16.7 µM]
Cc1noc(C)c1NC(=O)Nc1ccc2c(c1)CC(=O)N([C@@H](C)CO)C[C@@H](C)[C@@H](CN(C)C(=O)Nc1c(C)noc1C)O2	11.8	-6.6[16.7 µM]
COc1ccc(S(=O)(=O)N(C)C[C@H]2OCCCC[C@@H](C)Oc3ccc(NC(=O)CCC(F)(F)F)cc3C(=O)N([C@H](C)CO)C[C@H]2C)cc1	12.2	3.9[16.7 µM]
CCCC#Cc1cnc2c(c1)C(=O)N([C@H](C)CO)C[C@H](C)[C@@H](CN(C)C(=O)C1CCCCC1)O2	0.2	6.9[16.7 µM]
O=C(C[C@H]1C=C[C@@H](NC(=O)CN2CCOCC2)[C@@H](CO)O1)NCCc1ccccc1	-11.7	13.2[16.7 µM]
O=C(C[C@@H]1CC[C@@H](NC(=O)C2CCOCC2)[C@H](CO)O1)Nc1nccs1	-6.5	-10.2[16.7 µM]
COc1ccccc1-c1ccc2c(c1)O[C@H](CN(C)S(=O)(=O)c1ccccc1)[C@H](C)CN([C@@H](C)CO)S2(=O)=O	-3.7	?
Cc1cc(C(=O)Nc2cccc3c2O[C@@H](CN(C)S(=O)(=O)c2ccccc2)[C@H](C)CN([C@H](C)CO)C3=O)n(C)n1	2.2	-13.9[16.7 µM]
C[C@@H]1CCCCO[C@H](CN(C)S(=O)(=O)c2ccc(Cl)cc2)[C@H](C)CN([C@H](C)CO)C(=O)c2cc(NC(=O)C3CCCCC3)ccc2O1	-5.1	28.4[16.7 µM]
C[C@@H]1CN([C@H](C)CO)C(=O)c2cc(-c3ccc(F)cc3)cnc2O[C@H]1CN(C)C(=O)CN(C)C	17.5	-17.1[16.7 µM]
CCCNC(=O)N(C)C[C@@H]1Oc2cc(C#Cc3ccccn3)ccc2S(=O)(=O)N([C@H](C)CO)C[C@@H]1C	-5.8	-15.1[16.7 µM]
